Mito fusion act: inhibitors of mitochondrial division or activators of mitochondrial fusion | Potency, µM (top dose mostly 46.1 µM), for the others: at the top dose growth rescue (activation), usual class: activators | S. cerevisiae fusion-defective mutant growth rescue, CellTiterGlo 48 h | AID 485298 | 320,000 tested, 0.23% active;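 further: potency means the concentration at half of the fitted maximal effect; % of control where 0% means no effect; nearly all actives have a fitted effect of over 45% in size; temperature-sensitive fusion mutants such as fzo1-1 at 37 °C on non-fermentable ethanol glycerol medium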
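S. cerevisiae fusion-defective temperature-sensitive mutants (e.g. fzo1-1, mgm1-5) grown 48 h at 37C in YPEG (ethanol/glycerol non-fermentable) medium with 23 nl compound per well; growth rescue read as CellTiterGlo luminescence.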
ELG1 repair inh: inhibitors of ELG1-dependent DNA repair in HEK293T cells; HEK293T ELG1-luciferase reporter, luminescence, 16 h; DNA damage induced by 5-fluorouridine; Potency, µM (series often up to 46.1 µM), without a hit: at the highest dose activity change, negative = inhibition, most hits filed as inhibitors; 330,000 tested, 2.3% active; further: potency means the concentration at half of the fitted maximal effect; on the % scale 0 is the no-effect control and ±100 the full control effect; nearly all actives have a fitted effect of over 55% in size
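Overnight (16 hr) co-exposure of 2,000 cells/well to 5-fluorouridine and compound at 37 °C preceded detection. Luciferase was quantified via ONE-Glo luminescence; loss of signal denotes inhibition.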
Eya2 inh: blocks the phosphatase activity of human Eya2. Potency, µM (titrated, usually from 76.9 µM), without a hit: at the top dose activity, negative = inhibition, actives largely listed as inhibitors. O00167. recombinant Eya2, OMFP fluorescence dephosphorylation (OMFP is methylfluorescein phosphate). 330,000 tested, 0.006% active. AID 488837; further: potency means the concentration at half of the fitted maximal effect; on the % scale 0 is the no-effect control and ±100 the full control effect
Target sequence (O00167 whole entry, looked up): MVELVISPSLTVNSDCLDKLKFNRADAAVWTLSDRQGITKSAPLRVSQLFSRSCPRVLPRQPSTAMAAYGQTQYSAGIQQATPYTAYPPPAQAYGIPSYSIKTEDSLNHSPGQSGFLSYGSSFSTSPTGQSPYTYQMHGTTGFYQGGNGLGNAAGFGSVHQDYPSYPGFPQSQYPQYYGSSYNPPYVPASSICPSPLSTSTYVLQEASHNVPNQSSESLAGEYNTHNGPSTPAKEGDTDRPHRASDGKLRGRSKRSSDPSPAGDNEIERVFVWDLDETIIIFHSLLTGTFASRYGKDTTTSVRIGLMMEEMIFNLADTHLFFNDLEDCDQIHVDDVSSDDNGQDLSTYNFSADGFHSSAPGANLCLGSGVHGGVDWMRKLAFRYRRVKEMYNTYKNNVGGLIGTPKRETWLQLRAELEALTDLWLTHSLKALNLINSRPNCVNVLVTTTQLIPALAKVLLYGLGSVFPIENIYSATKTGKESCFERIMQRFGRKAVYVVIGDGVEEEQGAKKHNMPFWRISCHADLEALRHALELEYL
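Eya2 protein (added as 0.2 uM solution) was preincubated with compound for 10 min at ambient temperature in 50 mM HEPES pH 7.5, 50 mM NaCl, 5 uM MgCl2, 0.05% BSA, 1 mM DTT. OMFP (added at 50 uM) then reacted 10 min; fluorescence read at 485/525 nm.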
KCNH2 3.1 block: inhibitors of human KCNH2 3.1 potassium channel isoform; U2OS KCNH2 3.1, thallium flux FluxOr; hits give low values; activity change, % (tested at about 1.8 µM); 340,000 tested, 0.95% active;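 active means maximum activity change below -70%; inconclusive means maximum activity change from -70% to -50%; inactive means maximum activity change above -50%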;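 further: thallium influx rate constant from kinetic fluorescence after stimulation buffer; on the % scale 0 is the no-effect control and ±100 the full control effect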
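Virally transduced U2OS (3.1 isoform, 4 h infection in dark at RT) → overnight 37 C → FluxOr + Red40 in HBSS/HEPES, 45 min → stimulation buffer, 2 min kinetic read → rate constant vs DMSO controls.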
USP2a inh: USP2a (human) protease inhibition; Potency, µM (doses to about 38.3 µM), without a hit: at the highest dose activity change, negative = inhibition, hits mostly inhibitors; O75604; USP2 core, Ub-CHOP2 coupled fluorogenic reporter, 485/531; 330,000 tested, 0.01% active;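 further: potency means the concentration at half of the fitted maximal effect; plate controls were DMSO wells for no effect and full inhibition by NEM control for full effect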
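Cell-free coupled assay: 10nM USP2 core preincubated 30min RT with compound in Tris-HCl pH 8.0/CaCl2/CHAPS buffer, then 25nM Ub-CHOP2 and 25nM reporter substrate; fluorescence (Ex 485/Em 531) read after 60min RT, normalized to NEM inhibition, concentration-response curves fitted.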
AT treatment: potential ataxia-telangiectasia treatment; […] A-T fibroblasts, KAP-1 phosphorylation AlphaLISA; neocarzinostatin DNA damage 30 min before lysis; Potency, µM (titrated, usually from 57.5 µM), for the others: at the highest dose activation, actives largely listed as activators; 320,000 tested, 0.19% active; AID 485349; further: potency means the concentration at half of the fitted maximal effect; % of control where 0% means no effect; nearly all actives have a fitted effect of over 45% in size
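hTERT-immortalized A-T patient fibroblasts ([…]), 500 cells/well in OPTI-MEM, 1% FBS, got compounds for 60 min, then NCS for 30 min at 37C. Lysates were then assayed for phospho-KAP-1 by AlphaLISA (anti-pKAP1 donor, anti-KAP1 acceptor beads), 6 hr at 25C.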
KCNH2 WT inh: KCNH2 (human, wildtype) channel inhibition | Q12809 | U2OS, BacMam KCNH2, thallium flux FluxOr; hits give low values | activity change, % at 1.84 µM | 340,000 tested, 0.37% active;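 active means maximum activity change below -70%; inconclusive means maximum activity change between -70% and -50%; inactive means maximum activity change above -50%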; further: on the % scale 0 is the no-effect control and ±100 the full control effect
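U2OS cells were transduced with wild-type KCNH2 virus (2.03 x 10^8 / mL) for 4 h at room temperature, then cultured overnight at 37 C. Thallium flux was read with FluxOr dye. Rate constants were normalized to DMSO controls.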
TRPV1 ag: activates the human vanilloid receptor TRPV1; Q8NER1; TRPV1-expressing cells, Fluo-8 calcium influx, agonist mode; activation, % at 8.33 µM; 320,000 tested, 0.19% active; in the data active means activation above about 80%; inconclusive means between about 30% and that limit; further: 0% is about no effect
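Fluo-8 calcium influx in TRPV1-expressing cells, kinetic read (ex 480/em 520 nm). Compound added and read 3 min for agonist activity, followed by capsaicin at EC20 final and 2 min further read for enhancement.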
TCR activator: T cell receptor activation | Potency, µM (top dose mostly 9.22 µM), without a hit: at the highest dose activation of IL-2 secretion, most hits filed as activators | primary human leukocytes, anti-CD3, IL-2 HTRF, 48 h | 330,000 tested, under 10 active | AID 504894; further: % of control where 0% means no effect
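48 hr co-incubation of compounds, a-CD3 beads and primary human leukocytes; IL-2 quantified homogeneously by HTRF with anti-IL-2 K and d2 conjugates.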
Starred values were filed as active, the others as inactive; u = inconclusive; x = no result given; & = joins results of further samples; [ ] = another dose, or the depositor's remark. Unless noted, the call rests on the fitted dose curve; in most records, active means well fitted curve in the direction sought with a large enough effect; inconclusive means small, poorly fitted or top-dose-only effect, or another doubt; inactive means no such curve, though single readings can be large; an effect the other way counts as inactive or inconclusive. A portion of the library; rates above refer to the full screens.

Every second line gives: Mito fusion act, ELG1 repair inh, Eya2 inh, KCNH2 3.1 block, USP2a inh, AT treatment, KCNH2 WT inh, TRPV1 ag, TCR activator
> COc1ccc(C2NC(c3ccc(OC)cc3OC)C(C)C(=O)C2C)c(OC)c1 (configuration not stated)
 : -1%, -9%, 11%, 5, 0%, -10%, 37, -4, 3%
> CN(C)CCNC(=O)CCCNC(=O)Cn1cnc2sc3c(c2c1=O)CCCC3
 : -2%, 13%, -1%, 5, -3%, 0%, 9, -2, 10%
> Cn1nc(C(=O)NCCc2ccc(S(N)(=O)=O)cc2)c2c1-c1ccccc1S(=O)(=O)C2
 : -6%, -15%, -17%, 17, 1%, -6%, -9, 0, -1%
> Cc1cc(N/N=C/c2ccccc2[N+](=O)[O-])nc(-n2nc(C)cc2C)n1
 : 4%, 13µM*, -1%, -14, 0%, 9%, -2, 12, 0%
> CCOC(=O)/C(=N\O)C1=NC(C)(C)Cc2ccccc21
 : 2%, -5%, -9%, 10, -2%, -8%, -6, 5, -1%[46.1 µM]
> c1ccc(-c2cn3c4c(sc3n2)CCCC4)cc1
 : -15%, u, 14%, 0&-1, 3%, -7%, 1&-7, 27, 2%&-1%
> O=[N+]([O-])c1c(NCCO)cc(N2CCCCC2)c2nonc12
 : -7%, 8%, -10%, -7, 1%, 1%, -27, 4, -2%
> O=C(Nc1nnc(CCN2CCCCC2)s1)c1ccccc1Cl
 : -18%, 17%, -20%, 6, 0%, 0%, -2, 3, 12%
> O=C(Nc1cccc(S(=O)(=O)Nc2ccccc2Cl)c1)c1ccc(Cl)nc1
 : -4%, u, 0%, 22, 2%, -3%, -1, -3, -1%[46.1 µM]
> N=c1n(CCN2CCOCC2)c2ccccc2n1CC(=O)c1ccc(Cl)c(Cl)c1
 : -1%, u, -10%, -21, -1%, 10%[11.5 µM], 2, -5, -1%
> O=C(Nc1nc(-c2ccccc2)cs1)c1ccc2c(=O)n3c(nc2c1)CCCCC3
 : 27%, 3.7µM*, -12%, 1, 0%, 7%, -1, 5, 2%[46.1 µM]
> CS(=O)(=O)c1ccc(-c2csc(-c3cccnc3)n2)cc1
 : -15%, u, -7%, 7, -1%, x, -3, 3, 2%
> Cc1ccc(C)c(N2CCN(C(=O)CCCn3ncn4c(cc5occc54)c3=O)CC2)c1
 : 8%, -24%, -1%, 9, -1%, -3%, -7, 13, 1%
> CC(=O)c1cccc(NC(=O)Cn2nc(-c3ccccc3Cl)ccc2=O)c1
 : 1%, -18%, -13%, 11, -3%, -3%, 0, 11, 2%
> Cc1cc2c(cc1S(=O)(=O)N(C)c1ccccc1)NC(=O)CO2
 : -3%, -16%, 9%, 7, 10%, 3%, 34, 0, 4%
> CCN1CCN(c2oc(/C=C/c3ccccc3)nc2C#N)CC1
 : -3%, 10%, -11%, -32, -3%, 35%, 1, -7, -6%
> C=CCNc1cnn(-c2ccccc2)c(=O)c1Cl
 : 0%, u, 11%, -14, 1%, 3%, 20, 9, 4%
> CC(=O)Oc1ccc(C(=O)Nc2ccc(C3(C#N)CCCC3)cc2)cc1
 : 5%, u, 9%, -7, 0%, 1%, -17, 0, x
> CCCn1c(=N)n(CC(=O)C(C)(C)C)c2ccccc21
 : 2%, 1%, -3%, 3, -5%, 11%, 2, 1, -3%
> CC(=O)NS(=O)(=O)c1cccnc1Nc1ccc(Cl)cc1
 : -1%, 5%, 4%, 2, -2%, -4%, 4, -1, -15%
> CN(C)S(=O)(=O)NCc1ccc2c(c1)OCO2
 : -5%, 0%, -19%, 14, 3%, 1%, -3, 0, 0%
> CCN(CC)CCc1c(C)[nH]c(C(=O)OCc2ccccc2)c1C
 : -7%, -5%, 0%, -9, 0%, x, 71, -1, 4%
> COc1ccc(N(CC(=O)N2CCC(Cc3ccccc3)CC2)S(C)(=O)=O)cc1
 : 1%, u, u, 8, 1%, 9%, -3, 0, -3%
> c1ccc(-c2nc(CSc3n[nH]c(-c4cccs4)n3)cs2)cc1
 : 6%, -4%, -13%, -20, -21%, 5%, 1, -7, 3%
> N#Cc1ccc(/C=C/C(=O)c2ccco2)cc1
 : 15%, u, 3%, -8, 3%, -2%, 18, -2, 3%[46.1 µM]
> CC1(C)O[C@@H]2C[C@H]3[C@@H]4CCC5=CC(=O)C=C[C@]5(C)[C@@]4(F)[C@@H](O)C[C@]3(C)[C@]2(C(=O)CO)O1
 : 13µM*, u, -17%, -6, 6%, 7%, 0, 10, 1%
> O=C(N[C@@H](Cc1ccccc1)C(=O)NCCc1c[nH]c2ccccc12)c1ccco1
 : 12%, -2%, 12%, 1, -1%, 0%, 2, -2, 3%
> O=S1(=O)C=C(Sc2nnc(-c3ccccc3)o2)c2ccccc21
 : -3%, 16µM*, -3%, -25, -5%, -11%, 3, -1, 1%
> Cc1nnc(NC(=O)CCS(=O)(=O)c2ccccc2)s1
 : 7%, -6%, -1%, 17, -3%, 3%, -9, -5, -1%
> NS(=O)(=O)c1cc2c(cc1Cl)NC(C1C[C@H]3C=C[C@@H]1C3)NS2(=O)=O (some centres not stated)
 : -3%, 14%, -18%, -10, -2%, 20%, -19, 2, 1%
> Cc1c(OC(C)C(=O)N2C[C@H]3C[C@@H](C2)c2cccc(=O)n2C3)ccc2c3c(c(=O)oc12)CCCC3 (some centres not stated)
 : -1%, 0%, 1%, -6, -1%, 1%, -25, 4, -4%
> S=c1[nH]nc(-c2cc(-c3ccccn3)nc3ccccc23)o1
 : -1%, -5%, 3%, 13, 16%, -36%, 6, 4, 6%
> O=C(N/N=C/c1ccc([N+](=O)[O-])cc1)c1ccc(NS(=O)(=O)c2cccs2)cc1
 : 4%, -11%, -19%, -5, 0%, -6%, 31, -1, x
> CCOc1ccc(OCCNC(=O)C(NC(=O)c2c(F)cccc2F)C(C)C)cc1 (configuration not stated)
 : -1%, -18%, 6%, -3, 3%, -5%, 7, -1, 9%
> O=C(NC1CCCC1)C(c1ccco1)N(Cc1ccccc1)C(=O)c1csnn1 (configuration not stated)
 : 1%, -2%, -13%, 8, -1%, -1%, -2, x, -2%
> O=C1N(Cc2ccccc2)c2ccccc2C12OCCO2
 : 12%, -4%, -18%, 7, 0%, 3%, -4, 2, 0%
> CCOc1cc(S(=O)(=O)NCCN2CCOCC2)c(C)cc1C
 : -3%, -1%, -27%, 12, 0%, 1%, -5, 1, -4%
> CC(C)C(=O)Nc1cccc(-c2cn3ccccc3n2)c1
 : 0%, u, -3%, 15, 5%, 3%, 3, 1, 0%
> CN(CC(=O)O)c1ccc(S(=O)(=O)N2CCOCC2)cc1[N+](=O)[O-]
 : 4%, 3%, 2%, 10, 3%, 0%, 1, -3, -4%
> Cc1ccc(CNC(=O)C2(S(=O)(=O)c3ccccc3)CC=CC2)cc1
 : 0%, u, 18%, -3, 1%, -1%, 6, 2, -3%
> COc1ncnc(NS(=O)(=O)c2ccc(N)cc2)c1OC
 : -1%, 12%, 6%, 14, 1%, 3%, 6, -2, 4%
> CC(=O)c1cccc(N(C(=O)c2ccccn2)C(C(=O)NC2CCCCC2)c2cccs2)c1 (configuration not stated)
 : -6%, 2%, -28%, -2, -2%, -6%, 0, 2, 2%
> CC1(C)S[C@@H]2[C@H](NC(=O)C(C(=O)O)c3ccccc3)C(=O)N2[C@H]1C(=O)O (some centres not stated)
 : 4%, 17%, 2%, -5, 5%, -3%, -15, 4, -2%
> C/C(=N\NC(=O)c1ccccc1[N+](=O)[O-])c1c(O)cc(C)oc1=O
 : -6%, 9%, 7%, 9, 5%, 11%, 29, 0, 3%[46.1 µM]
> Cc1cccc(/C=C2/Sc3ccc(C(=O)N4CCOCC4)cc3NC2=O)c1
 : 28%, u, 6%, 4, -2%, -9%, 3, 4, 2%
> C=CCNC(=O)NC(=O)CSc1nnc(C(F)(F)F)n1C
 : 8%, 6%, -1%, 3, -1%, 1%, -4, 0, 11%
> COc1ccc(-c2cc(-c3n[nH]c(=S)n3-c3cc(OC)ccc3OC)[nH]n2)cc1
 : 7%, 20%, 3%, x, 4%, x, x, 0, 0%[46.1 µM]
> COc1ccc([N+](=O)[O-])cc1N(CC(=O)N1CCN(Cc2ccccc2)CC1)S(C)(=O)=O
 : 2%, 6%, 16%, 6, 1%, 0%, 3, -2, x
> CCOC(=O)c1cc(Br)c(=O)n2ccccc12
 : 3%, u, u, -17, 0%, 0%, -30, -1, 6%
> COc1nc(/C(N)=N/O)nc(N2CCCCC2)n1
 : -2%, -7%, 4%, 30, 2%, 6%, 0, -2, -1%
> Cc1nn(-c2ccccc2)c(C)c1NC(=O)COc1ccc2ccccc2c1
 : u, u, -9%, -2, -1%, 8%, -23, 2, -28%
> COc1ccccc1N1CCN(Cc2nc3ccccc3c(=O)n2CC(C)=O)CC1
 : 4%, u, 4%, -29, -6%, 6%, 10, 1, 2%
> O=C(NC1CCCCC1)C(c1ccco1)N(CCc1ccccc1)C(=O)C(F)(F)F (configuration not stated)
 : 1%, -1%, -2%, -6, 6%, x, 59, u, -4%[46.1 µM]
> O=[N+]([O-])c1ccc(F)cc1F
 : 16%, 13%, -9%, 25, -1%, u, 1, -1, 1%
> COc1ccc2cc3cc(C(=O)NCCN4CCc5ccccc5C4)sc3nc2c1
 : 1%, u, 2%, -2, -3%, -3%, -15, 6, -9%[46.1 µM]
> CCCCCSc1nc(O)cc(=O)[nH]1
 : -5%, 28%, 7%, 12, 5%, -5%, -1, 1, -3%

Screening data from PubChem.
